Methyltransferases: Primary Screen for Target Class Profiling of Small Molecule Inhibitors of Methyltransferases | purified enzyme, MTase-Glo SAH luminescence; hits give low values | calls only at 40 µM | actives 3.9% (n = 25,000); active = -50% or lower on at least one of six enzymes; inconclusive = the cases between; inactive = as a rule above -30% on all six;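 also: enzymes were COMT GAMT GNMT HNMT NNMT and PNMT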
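Each enzyme was assayed with SAM and its substrate. SAH formation detected by MTase-Glo luminescence; single-point 40 uM screen[…].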
Calls only; i = inactive; ? = inconclusive; + = active, no number. % is scaled to controls: 0 for no effect and ±100 for the full control effect. Not all compounds are listed, so the mix of outcomes need not match the whole.

smiles,Methyltransferases
CC(=O)Nc1c2n(c3ccc(F)cc13)CC(C)(C(=O)NC1CCCCCC1)N(C1CCCCCC1)C2=O (centres undefined),i
Cc1cc2nc(NCCCO)n(CC(=O)c3cc(C(C)(C)C)c(O)c(C(C)(C)C)c3)c2cc1C,i
CN1CCN(C(=O)c2cc(-c3ccsc3)nc3c2cnn3C)CC1,i
CCOCCCNC(=O)CCn1ccc2cc(S(=O)(=O)N3CCCC3)ccc21,i
O=C1CC(C(=O)O)C2(CCN(c3cc(C4CC4)ncn3)CC2)N1 (centres undefined),i
CC(C)Cn1c(=O)c2ccc(C(=O)NC(C)C)cc2n2c(SCc3ccccc3F)nnc12,i
CCC(C)NC(=O)c1ccc2c(=O)n(C)c3nnc(SCC(=O)NC4CCCC4)n3c2c1 (centres undefined),i
CC1CCN(S(=O)(=O)c2ccc3c(ccn3CC(=O)NCCc3ccccc3)c2)CC1,i
CN1CCN(CCCNC(=O)c2cc3n(n2)CC(C)(C(=O)NC2CCCCCC2)N(C)C3=O)CC1 (centres undefined),i
COc1ccc(OC)c(CCN2C(=O)c3cc4occc4n3CC2(C)C(=O)NC2CCCCC2)c1 (centres undefined),i
COCCNc1ncc(-c2ccc(F)cc2)c2c1OCC2,i
NNCCc1ccc(NC(=O)CCCc2ccccc2)cc1,?
Cc1ccc(C)c(S(=O)(=O)c2nnn3c2nc(NCCCOC(C)C)c2ccccc23)c1,i
CC(C)c1cc2n(n1)CC(C)(C(=O)NC1CCCCCC1)N(c1cccc(Cl)c1)C2=O (centres undefined),i
O=C(O)c1cc(O[C@@H]2O[C@H](CO[C@@H]3OC[C@@H](O)[C@H](O)[C@H]3O)[C@@H](O)[C@H](O)[C@H]2O)c2ccccc2c1O,i
CCCC1c2ccc(C)n2CCN1C(=O)Nc1ccc(C)cc1Cl (centres undefined),i
Cc1cccc(N2CCN(C(=O)c3ccc4c(=O)[nH]c5c(C(=O)NC(C)C)sc(=S)n5c4c3)CC2)c1C,+
CC1CCC(NC(=O)C2(C)Cn3c(cc4sccc43)C(=O)N2Cc2ccccc2F)CC1 (centres undefined),i
CN(C)CCCOc1nn(Cc2ccccc2)c2ccccc12,i
CC(C)CCNC(=O)C1(C)Cn2nc(C(=O)NC3CCCCC3)cc2C(=O)N1C (centres undefined),i
Cc1ccc(CNC(=O)CSc2nnc3n(CC(C)C)c(=O)c4ccc(C(=O)NC(C)C)cc4n23)cc1,i
CCC1C(=O)N(C)CCN1C(=O)c1coc(COc2ccc3c(c2)OCO3)n1 (centres undefined),i
CC(=O)N1CCC(OCCOc2ccccc2)CC1,i
C=CC(C)(CC/C=C(\C)C(=O)OC[C@H]1O[C@@H](OC(C)(C=C)CC/C=C(\C)C(=O)O[C@H]2[C@H](O)[C@@H](O)[C@H](OC(C)(C=C)CC/C=C(\C)C(=O)O)O[C@@H]2CO)[C@H](O)[C@@H](O)[C@@H]1O)O[C@@H]1O[C@H](CO)[C@@H](O)[C@H](O)[C@H]1O (some centres undefined),i
C=Cc1ccc(Cn2nc3n(Cc4ccc(C)cc4)c(=O)c4ccc(C(=O)NC(C)C)cc4n3c2=O)cc1,i
Cc1cc2c(cc3n2CC(C)(C(=O)NC2CCCCCC2)N(CCCN2CCCCC2)C3=O)o1 (centres undefined),i
Nc1ncccc1CN1C[C@H]2CN(C(=O)C3CCC3)C[C@@]2(C(=O)O)C1,i
CCOc1ccc(CNC(=O)c2cc3n(n2)CC(C)(C(=O)NCc2ccccc2)N(C)C3=O)cc1OC (centres undefined),i
CC[C@H](C)NC(=O)c1sc(=S)n2c1[nH]c(=O)c1cc(Cl)ccc12,+
CCOC(=O)c1cc2n(n1)CC(C)(C(=O)NCc1ccccc1OC)N(c1ccc(C)c(C)c1)C2=O (centres undefined),i
O=C(c1ccc2c(=O)nc3c(-c4ccccc4F)n[nH]n3c2c1)N1CCN(C2CCCCC2)CC1,i
Cc1cc(C(=O)N2CCc3ncnc(N4CCOCC4)c3CC2)n(C)n1,i
C=CCc1ccc(O[C@@H]2O[C@H](CO)[C@@H](O)[C@H](O)[C@H]2O)c(OC)c1,i
Cc1ccc(Cn2c(=O)c3ccccc3n3c(CCC(=O)Nc4ccccc4)nnc23)cc1,i
CC1CCC(NC(=O)C2(C)Cn3c(ccc3-c3ccccc3)C(=O)N2CCCc2ccccc2)CC1 (centres undefined),i
C[C@H]1[C@H](O)O[C@@H]2O[C@@]3(C)CC[C@H]4[C@H](C)CC[C@@H]1[C@@]24OO3,i
C[C@@H]1[C@H](O)[C@@H]2OC(=O)C3=C2[C@H](CCC3)[C@@]12C[C@@H](c1ccoc1)OC2=O,i
CC(=O)O[C@H]1[C@@]2(O)C[C@H](C)[C@H](OC(=O)c3ccccc3)[C@@H]2[C@@H](OC(=O)CO)[C@]2(OC(C)=O)C[C@H]3C(=O)C(C)(C)C[C@@H]3[C@@]1(C)[C@H]2OC(C)=O,i
CC(C)(C)c1cc2n(n1)CC(C)(C(=O)NC1CCCCCC1)N(c1ccc(F)cc1)C2=O (centres undefined),i
CCOC(=O)COc1cc2oc(=O)cc(-c3ccccc3)c2cc1Cl,i

The final five records of the section before come first, to join the parts.
smiles,Methyltransferases
C[C@H]1[C@H](O)O[C@@H]2O[C@@]3(C)CC[C@H]4[C@H](C)CC[C@@H]1[C@@]24OO3,i
C[C@@H]1[C@H](O)[C@@H]2OC(=O)C3=C2[C@H](CCC3)[C@@]12C[C@@H](c1ccoc1)OC2=O,i
CC(=O)O[C@H]1[C@@]2(O)C[C@H](C)[C@H](OC(=O)c3ccccc3)[C@@H]2[C@@H](OC(=O)CO)[C@]2(OC(C)=O)C[C@H]3C(=O)C(C)(C)C[C@@H]3[C@@]1(C)[C@H]2OC(C)=O,i
CC(C)(C)c1cc2n(n1)CC(C)(C(=O)NC1CCCCCC1)N(c1ccc(F)cc1)C2=O (centres undefined),i
CCOC(=O)COc1cc2oc(=O)cc(-c3ccccc3)c2cc1Cl,i
CN1CCN(CCN2C(=O)c3ccc(-c4ccco4)n3CC2(C)C(=O)NC2CCCCCC2)CC1 (centres undefined),i
Clc1ccc(N2CCN(Cc3cc4ccccn4n3)CC2)cc1,i
CC(C)n1c(=O)c2ccc(C(=O)NC3CCCC3)cc2n2c(=O)n(CC(=O)N(C)c3ccccc3)nc12,i
COC(=O)c1ncn2c1C(=O)N(CCc1cccs1)C(C)(C(=O)NC1CCCCCC1)C2 (centres undefined),i
O=C(NCC(=O)N1CCN(Cc2ccccc2)CC1)c1cccc(-c2ccsc2)c1,i
C=C1CCC[C@]2(C)CC[C@@H](C(=C)C(=O)O)[C@H](O)[C@@H]12,?
O=C(O)/C=C/c1ccc(O[C@@H]2O[C@H](CO)[C@@H](O)[C@H](O)[C@H]2O)cc1,i
CCn1nccc1C(=O)N1C[C@@H]2CCCN3CCC[C@@H]([C@H]23)[C@H]1CCCC(=O)NC,i
COCC[C@]1(O)CCN(C(=O)c2cccc(OC)c2C)C[C@H]1C,i
CCOC(=O)c1cc2n(n1)CC(C)(C(=O)NCc1ccccc1OC)N(CCc1ccc(Cl)cc1)C2=O (centres undefined),i
OC1CCC(Nc2nc(-c3ccccc3)nc3[nH]ccc23)CC1 (centres undefined),i
C=CC1(C)CC=C2C(CCC3C(C)(C(=O)O)CCCC23C)C1 (centres undefined),?
O=C(c1ccccc1)c1c(O)cc(O)cc1O[C@@H]1O[C@H](CO)[C@@H](O)[C@H](O)[C@H]1O,+
CC1(C(=O)NCc2ccccc2)Cn2nc(-c3ccccc3)cc2C(=O)N1Cc1ccco1 (centres undefined),i
Cc1occc(=O)c1O[C@@H]1O[C@H](CO)[C@@H](O)[C@H](O)[C@H]1O,i
COc1ccc2cc3n(c2c1)CC(C)(C(=O)NCC1CCCO1)N(Cc1ccccc1OC)C3=O (centres undefined),i
CCc1noc(-c2ccn3c(CNC(=O)Cc4c[nH]c5ccccc45)nnc3c2)n1,i
COc1ccccc1-c1cc(C(=O)N2CCOCC2)nn2cccc12,i
O=C(c1ccc(C(F)(F)F)cc1)N1CCCC(C(=O)N2CCC(N3Cc4cccn4C3=O)CC2)C1 (centres undefined),i
O=S(=O)(c1ccc(Cl)cc1)N1CCN(c2ccnc3cc(Cl)ccc23)CC1,?

Remaining list, next part.
SMILES | Methyltransferases
CN(C)c1nc(NC2CC(c3cc(=O)[nH]c(C4CC4)n3)C2)ncc1F (centres undefined) | ?
CCc1cc2c(cc3n2CC(C)(C(=O)NC2CCCCC2)N(CCN2CCN(C)CC2)C3=O)s1 (centres undefined) | i
COCCOC1CCN(C(=O)NCc2ccc(C)cc2)CC1 | i
O=Nc1ccc2oc(=O)ccc2c1 | +
N[C@@H](Cc1ccc(O)c(I)c1)C(=O)O | i
CC1=C[C@@H]2[C@@H]([C@@H](O)C[C@@]3(C)[C@H]2C[C@@H](C)[C@]3(O)C(=O)CO)[C@@]2(C)Cc3cnn(-c4ccccc4)c3C=C12 | i
O=C(NC1CCN(c2nc3ncccc3o2)C1)c1ccccc1F (centres undefined) | i
O=C(NCCN1CCCC1)c1cc2n(n1)CCCN(Cc1ccc(Cl)cc1)C2=O | i
OC1C=C2C3CN(Cc4cc5c(cc43)OCO5)C2CC1O (centres undefined) | i
COc1ccc(-c2noc(C(=O)NC(C)C)c2[C@H](C)O)cc1 | i
CCCn1c(=O)c2ccc(C(=O)NC(C)CC)cc2n2c(=O)n(CC(=O)NC3CCCC3)nc12 (centres undefined) | i
CCCn1c(=O)c2cc(F)ccc2n2c(SCc3ccc(F)cc3)nnc12 | i
CN(C)Cc1nnc(C2CC(NC(=O)Cc3c[nH]c(=O)n(C)c3=O)C2)n1C (centres undefined) | i
COc1cc(Br)c(Nc2nc(-c3c(C)nc4ncccn34)cs2)c(Br)c1 | i
CC1(C(=O)NC2CCCCCC2)Cn2c(ccc2-c2ccccc2)C(=O)N1Cc1ccc(F)cc1 (centres undefined) | i
Cc1cnn(-c2ccccc2)c1NC(=O)COCc1ccccc1 | i
COC(=O)C(Cc1c[nH]c2ccccc12)NC(=O)c1ccccc1Br (centres undefined) | ?
O=S(=O)(c1ccccc1)c1nnn2c1nc(NC1CCN(Cc3ccccc3)CC1)c1cc(Cl)ccc12 | i
Cc1cccc(N2C(=O)c3ccc(-c4ccco4)n3CC2(C)C(=O)NC2CCCC2)c1C (centres undefined) | i
Cc1cc(C)cc(NC(=O)CCc2nnc3n(CC(C)C)c(=O)c4ccccc4n23)c1 | i
COC(=O)C1=COC(O[C@@H]2O[C@H](CO)[C@@H](O)[C@H](O)[C@H]2O)[C@H]2[C@@H]1[C@H](OC(=O)CCc1ccc(O)cc1)C[C@]2(C)O (some centres undefined) | i
CNc1cc(NS(=O)(=O)c2ccc(N)cc2)nc(NC)n1 | i
CCC1CCCCN1S(=O)(=O)c1ccc2c(c1)n(C)c(=O)n2C (centres undefined) | i
Cc1ccccc1NC(=O)CSc1nnc2n(C)c(=O)c3ccc(C(=O)NC4CCCC4)cc3n12 | i
COc1ccccc1CNC(=O)C1c2c(n(C)c3ccccc23)SCC(=O)N1Cc1cccnc1 (centres undefined) | i
CN(CCc1ccccn1)C(=O)[C@@]12CCCC[C@H]1N(C)C(=O)CC2 | i
COc1cc2c(cc1OC)C1CC(=O)C(CC(C)C)CN1CC2 (centres undefined) | i
CC1(C(=O)NC2CCCCCC2)Cn2c(ccc2-c2ccco2)C(=O)N1CCc1ccc(Cl)cc1 (centres undefined) | i
O=C(O)c1ccncc1Nc1nn(CCN2CCC(F)(F)CC2)c2ccc(F)cc12 | ?
COc1ccc(F)cc1-c1cccc(C(=O)NCCNC(=O)c2ccccc2Cl)c1 | i

By substructure: the compounds so far containing a tert-butyl group
SMILES | Methyltransferases
Cc1cc2nc(NCCCO)n(CC(=O)c3cc(C(C)(C)C)c(O)c(C(C)(C)C)c3)c2cc1C | i
CC(C)(C)c1cc2n(n1)CC(C)(C(=O)NC1CCCCCC1)N(c1ccc(F)cc1)C2=O (centres undefined) | i

Next structures:
SMILES | Methyltransferases
O=C(Cc1ccccn1)N1CCC(C(=O)N2CCC(c3nc4ncccc4[nH]3)CC2)CC1 | i
CCCn1c(=O)c2ccc(Cl)cc2n2c(=O)n(CC(=O)Nc3ccc(C)c(C)c3)nc12 | i
Cc1nnc([C@@H]2CC(F)(F)CN2C(=O)COc2ccccc2)o1 | i
Cc1ccc(NC(=O)Cn2nc3n(CCC(C)C)c(=O)c4ccccc4n3c2=O)c(Cl)c1 | i
Cc1nnc2n1CCC(NC(=O)c1cccn1C)CC2 (centres undefined) | i
CS(=O)(=O)N[C@H]1CCN2C(=O)c3cc(-c4cccc(C(F)(F)F)c4)ccc3NC(=O)[C@@H]2C1 | i
CN(C)C[C@@H]1CN(c2ccccn2)C[C@H]1NC(=O)NC(C)(C)C | i
Cc1ccc(NC(=O)N2CCN(c3nnnn3-c3ccccc3)CC2)cc1 | i
Cn1cc(-c2cc3c(ccn3Cc3ccncc3)c(N3CCOCC3)n2)cn1 | +
O=C(C1CCCN1[S+](=O)([O-])c1cccc(C(F)(F)F)c1)N1CCC(c2nc3ccncc3[nH]2)C1 (centres undefined) | i
CCCC1c2ccc(C)n2CCN1C(=O)Nc1ccccc1C(=O)OCC (centres undefined) | i
CC(C)c1ccc(S(=O)(=O)N2CCCN(C)c3ccccc32)cc1 | i
O=C(Cn1ccc2cc(S(=O)(=O)N3CCCCC3)ccc21)NCc1ccc(Cl)cc1 | i
Cc1ccc(-c2ccc3nnc(CNC(=O)COc4cccc(C)c4)n3n2)cc1 | i
COc1ccc(CCN2C(=O)c3ccccc3CC2(C)C(=O)NC2CCC(C)CC2)cc1OC (centres undefined) | i
O=C(CC1CCN(C(=O)c2ccc(F)cc2)C1)NCc1ccccc1 (centres undefined) | i

Grouped by structure: the entries above containing two or more sulfur atoms (2)
SMILES | Methyltransferases
Cc1cccc(N2CCN(C(=O)c3ccc4c(=O)[nH]c5c(C(=O)NC(C)C)sc(=S)n5c4c3)CC2)c1C | +
CC[C@H](C)NC(=O)c1sc(=S)n2c1[nH]c(=O)c1cc(Cl)ccc12 | +

Source: PubChem BioAssay
